AmpC nodet inh = blocks E. coli AmpC beta-lactamase in absence of detergent. AID 585. P00811. 1.8% of 71,000 active. Potency, µM (highest dose often 28.7 µM), for inactives: at the highest dose activity change, negative = inhibition. AmpC nitrocefin hydrolysis, absorbance 480 nm, no detergent; potencies from a single point are estimates; active = falling curve, for most hits resting on a single point; inconclusive = weak or doubtful change; inactive = flat or rising curve; also: % of control where 0% means no effect; about half of the hits show no inhibition at the top dose; a quarter of the inactives give rising signals
Target sequence (P00811 whole entry, looked up): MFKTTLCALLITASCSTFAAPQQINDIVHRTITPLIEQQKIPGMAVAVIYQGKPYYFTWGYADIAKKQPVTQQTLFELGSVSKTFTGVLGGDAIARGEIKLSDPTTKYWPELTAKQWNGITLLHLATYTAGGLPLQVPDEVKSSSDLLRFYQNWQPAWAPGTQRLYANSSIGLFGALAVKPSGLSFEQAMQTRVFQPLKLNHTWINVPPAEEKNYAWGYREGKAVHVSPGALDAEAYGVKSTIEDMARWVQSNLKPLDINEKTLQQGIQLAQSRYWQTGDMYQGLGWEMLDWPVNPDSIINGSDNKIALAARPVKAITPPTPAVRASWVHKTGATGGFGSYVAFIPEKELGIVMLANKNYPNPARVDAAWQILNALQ
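AmpC, 20 mM phosphate pH 7.0; 15 min cpd preinc, RT; start with nitrocefin (800 uM stock); A480 kinetic read, 20 s intervals, 4 min. No-enzyme wells = negative control.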
An asterisk follows results filed as active; ? = inconclusive; [ ] = dose if it differs, or a comment. Potency is read from the fitted curve at half-maximal effect.

SMILES | AmpC nodet inh
Cc1cc(=O)[nH]c(SCC(=O)Nc2nnc(CC(C)C)s2)n1 | -8%
CC1(C(=O)NC2CCCC2)CCC(=O)N1CCC1=CCCCC1 (centres undefined) | 73%
O=C(O)COCCN1CCN([C@@H](c2ccccc2)c2ccc(Cl)cc2)CC1 | 28%[12.8 µM]
CN(C)C(=O)[C@H]1C[C@@H]1[C@H](NC(=O)OCc1ccccc1)c1ccccc1 | 67%
COc1ccc(S(=O)(=O)N2CCC(C(=O)c3ccc4c(c3)OCCO4)CC2)cc1 | 10%
O=C(NCc1cccnc1)Nc1ccc(F)cc1F | -2%
CNc1nc(Nc2ccc(C(C)=O)cc2)nc(OC(C(F)(F)F)C(F)(F)F)n1 | 38%
CC(=O)c1cccc(NC(=O)COc2ccccc2)c1 | -12%
O=C1c2c(O)cc(O)cc2O[C@@H](c2ccc(O)c(O)c2)[C@H]1O | -13%
CCCCNC(=O)CSc1nccn1Cc1ccccc1 | 12%
CCOC(=O)C(C)Oc1cc(C)cc2oc(=O)c3c(c12)CCCC3 (centres undefined) | 20%
Cc1ccc(C(=O)Cn2c(NCCO)nc3ccccc32)cc1 | 28%
O=C(Cn1cccc1)Nc1ccc(F)cc1F | 4%
COC(=O)Cc1c(C)nc2nc(-c3cccnc3)[nH]n2c1=O | -6%
O=C(CSc1ccc(Cl)cc1)N1CCOCC1 | 2%
O=C(O)c1cc(N=Nc2ccc([As](=O)(O)O)cc2)ccc1O | 1%[5.75 µM]
Cc1ccc(Nc2nc(C(=O)N3CCC(C(=O)NCCN4CCOCC4)CC3)cs2)cc1 | 76%
Cc1cc2c(cc(C(=O)OCC(=O)NCc3cccs3)n2C(C)C)o1 | 16%
O=[N+]([O-])c1ccc(O[C@H]2O[C@@H](CO)[C@@H](O)[C@@H](O)[C@@H]2F)c([N+](=O)[O-])c1 | 8%
CN(C)C(=O)c1ccc(-c2cc(Nc3ccccc3)ncn2)cc1 | 33%
Cc1ccc(OCCn2nc3ccccc3n2)c(C)c1 | -2%
Cc1cc(C)n(-c2nc3ccccc3nc2Nc2ccc3[nH]c(=O)[nH]c3c2)n1 | 28%
Cn1cccc1C(=O)N1CCC[C@@]2(CCN(Cc3ccc(C#N)cc3)C2)C1 | 32%
CCOC(=O)C1CCCN(CCC(=O)Nc2c(C(=O)OC)[nH]c3cc(OC)ccc23)C1 (centres undefined) | 30%
Cc1ccc(S(=O)(=O)NCC(=O)NC2CCCCCC2)cc1 | 7%
Carrying on.
SMILES | AmpC nodet inh
Fc1ccc(CN2CCCCCCC2)cc1F | -19%
CCn1cc(/C=C(/C#N)S(=O)(=O)c2ccccc2)cn1 | 1%
O=C(COC(=O)c1cccs1)NCc1ccccc1 | 4%
COc1ccc(Cl)cc1NC(=O)CN(C1CCCCC1)S(C)(=O)=O | -16%
Cc1nc(CN2CCN(C(=O)NC3(c4ccccc4)CC3)CC2)cs1 | -8%
CC(=O)c1cccc(NC(=O)c2cnn3ccccc23)c1 | 4µM*[single pt active]
N#Cc1nc(COc2ccccc2F)oc1NCCc1ccccc1 | 4%
O=C(Nc1ccccc1)N1CC2(CCN(C(=O)c3cc(C(F)(F)F)cc(C(F)(F)F)c3)CC2)C1 | 86%
COc1ccc(CNc2ccnc(-c3c(C)noc3C)n2)c(OC)c1 | 30%
Cc1cc2c3c(c1)C1(C(=O)N3C(C)(C)CC2C)C(C#N)=C(N)Oc2n[nH]c(C)c21 (centres undefined) | 45%
CC(c1ccco1)N(C(=O)COc1ccc(Cl)cc1Cl)c1ccccn1 (centres undefined) | 65%
CS(=O)(=O)N1CCN(C(=O)C(Sc2ccccc2)c2ccccc2)CC1 (centres undefined) | 42%
COc1ccc(NC(=O)NS(=O)(=O)c2ccc(C)cc2)c(OC)c1 | 0%
Cn1c(CN2CCC(C(N)=O)CC2)c(C#N)c2ccccc21 | 28%
CC(C)(C)c1csc(NC(=O)CSc2nc3ccccc3c(=O)[nH]2)n1 | 0%
COCON1C(=O)CN(C(C)=O)C1c1ccc(Cl)cc1Cl (centres undefined) | 6%
COc1cccc(NC(=O)Cn2cc3c(n2)CCCCC3)c1 | 9%
Cc1nn2c(-c3ccccc3)c(-c3ccccc3)nc2[nH]c1=O | 3%
CC(C)Cn1cnc2c1c(=O)n(CC(=O)Nc1ccc3c(c1)OCO3)c(=O)n2Cc1ccccc1 | 32%
O=C(OC1CCc2ccccc2C1=O)c1ccccc1O (centres undefined) | 0%
COc1ccc(NC(=O)C2CCN(S(=O)(=O)c3cccnc3)CC2)cc1Cl | 10%
CCn1c(COc2ccccc2C(N)=O)nc2ccccc21 | -13%
Cc1cc(C)c2[nH]c(=O)c(C(c3nnnn3Cc3ccc4c(c3)OCO4)N3CCCC3)cc2c1 (centres undefined) | 50%
Cc1cccc(C2Nc3ccccc3C(=O)N2c2ccccc2)n1 (centres undefined) | 15%
O=C(c1cccs1)c1no[n+]([O-])c1C(=O)c1cccs1 | -2%

Retrieved by compound from the list above (three):
SMILES | AmpC nodet inh
COc1ccc(Cl)cc1NC(=O)CN(C1CCCCC1)S(C)(=O)=O | -16%
CC(=O)c1cccc(NC(=O)c2cnn3ccccc23)c1 | 4µM*[single pt active]
COc1cccc(NC(=O)Cn2cc3c(n2)CCCCC3)c1 | 9%

The list goes on:
SMILES | AmpC nodet inh
COC(=O)c1ccc(CN(Cc2ccc(C(=O)OC)o2)C(C)(C)C)o1 | 25%
COC(=O)C1=COC(C)C2CN3CCc4c([nH]c5ccccc45)C3CC12 (centres undefined) | 26%
CN(C)C[C@@H](O)c1ccc(Cl)c2ccccc12 | 12%[5.75 µM]
O=C(Nc1cccc(NC(=O)C2CC3CCCC(C2)C3=O)n1)C1CC2CCCC(C1)C2=O (centres undefined) | 78%
COc1cccc(NC(=O)Cc2cccs2)c1 | -19%
CCOC(=O)c1sc2ncn(/N=C/c3ccccn3)c(=O)c2c1C | -1%
CSCCC(C(=O)O)N1C(=O)c2ccc(C(=O)O)cc2C1=O (centres undefined) | -5%
COc1ccc(C2(C)NC(=O)N(Cc3cc(Cl)cc4c3OCOC4)C2=O)cc1OC (centres undefined) | 59%
O=C(c1ccncc1)N1CCC[C@@]2(CCN(C(c3ccccc3)c3ccccc3)C2)C1 | 145%
COc1ccc(OC)c(C(C(=O)NCc2ccco2)N(C(=O)Cn2nnc3ccccc32)C(C)C)c1 (centres undefined) | 34%
C=CCN1C(=O)C2C(C(=O)NCc3ccccc3)C3C=CC2(O3)C1C(=O)NC(C)(C)C (centres undefined) | -3%
CS(=O)(=O)N1CCCC(C(=O)NCc2ccccc2Cl)C1 (centres undefined) | 0%
COC(=O)c1ccccc1NC(=O)c1ccc(COc2ccccc2)o1 | -2%
Cl/C=C/Cl | -3%
CCOC(=O)C1CCCCN1C(=O)CCc1c(C)nc2ncnn2c1C (centres undefined) | 3%
O=C(c1cccs1)N1CCCC(c2nc(-c3ccc(F)cc3)no2)C1 (centres undefined) | 27%
COc1ccc(-c2cc(C(F)(F)F)nc(N3CCN(c4ccc(F)cc4)CC3)n2)cc1OC | -12%
OC(CN1C2=NCCN2c2ccccc21)c1ccc(Br)cc1 (centres undefined) | -4%
CC(C)C=O | -3%
Cc1cc(Oc2ccc(=O)n(C)n2)nc(Oc2ccc(=O)n(C)n2)n1 | -17%
CCn1c(SCC(=O)N2CCc3ccccc32)nnc1-c1ccncc1 | 16%
Cc1ccccc1OCCC(=O)Nc1c(C)n(C)n(-c2ccccc2)c1=O | 17%
Cc1nn2c(-c3ccc(Cl)cc3Cl)nnc2s1 | 12%
CCOc1ccccc1NC(=O)N1CCC(c2nc3ccccc3[nH]2)CC1 | -1%
CCn1c(SCC(=O)OC2CCCCC2)nc2ccccc2c1=O | 13%
Carrying on:
SMILES | AmpC nodet inh
Cc1ccc(S(=O)(=O)N2CCC(C(=O)Nc3ccc4c(c3)COC4=O)CC2)cc1 | -1%
COCCn1c(=O)c(-c2cc(F)cc(F)c2)nc2cnc(Oc3ccc(OC)cc3)nc21 | 59%
CNC(=O)c1ccccc1NC(=O)c1cccc(S(=O)(=O)N2CCC(C)CC2)c1 | 19%
Cc1[nH]nc2c1C(c1ccc3c(c1)OCO3)C(C#N)=C(N)O2 (centres undefined) | -18%
CC(C)(C)C(=O)Cn1c[n+](N)cn1 | -2%
CSc1nc(-c2ccccc2)nc2c1COC(C)(C)C2 | 25%
CCCCc1noc2c1/C(=N\O)CC(c1ccccc1)C2 (centres undefined) | -6%
Cc1ccc(NC(=O)c2cccc(OCc3c(C)noc3C)c2)c(C)c1 | 18%
N#Cc1nc(Cc2cccc3ccccc23)oc1NCCCN1CCOCC1 | -3%
Clc1cccc(-c2nn3c(-c4ccncc4)nnc3s2)c1 | -1%
Cc1ccc(S(=O)(=O)CC(c2ccccc2)N2CCOCC2)cc1 (centres undefined) | 20%
O=C(CSc1ccc2nnc(-c3ccccc3)n2n1)NCc1ccco1 | 4%
O=C(Nc1ccccn1)c1cc(-n2cnnc2)ccc1Cl | 1%
C[C@@H](CO)NC(=O)[C@H]1C=C2c3cccc4[nH]cc(c34)C[C@H]2N(C)C1 | -3%
N#Cc1c(NC(=O)CSc2nnnn2C2CCCC2)sc2c1CCCC2 | -22%
O=C(Nc1ccc(Cl)c(Cl)c1)c1ccncc1 | -2%
O=C(O)C1CC=CCC1C(=O)Nc1ccc(S(=O)(=O)N2CCCc3ccccc32)cc1 (centres undefined) | -2%
O=C(CC1(O)C(=O)N(Cc2ccccc2)c2ccccc21)c1ccncc1 (centres undefined) | 40%
O=c1[nH]c2c(s1)C(c1ccco1)C1C3CCC(C3)C1S2 (centres undefined) | -7%
COCCN(C(=O)c1cccc(OC)c1)c1nnc(-c2ccncc2)s1 | 66%
CC(C)C[C@@H](CC(=O)N[C@@H](CCCN)CC(=O)N[C@@H]1CCCC[C@H]1C(=O)N[C@H](CC(=O)N[C@@H](CCC(=O)O)CC(=O)O)Cc1c[nH]c2ccccc12)NC(=O)[C@@H]1CNCC[C@H]1N | 128%
CSc1nc(N)nc(SCCS(=O)(=O)c2ccc(Cl)cc2)c1C#N | -10%
O=C(c1ccc(Cl)cc1)N1CCCCC(Sc2nnc(-c3ccc4c(c3)OCO4)o2)C1=O (centres undefined) | 31%
CCOC(=O)Cc1cc(=O)c2c(=O)n(-c3ccccc3)[nH]c2[nH]1 | 4%
CC1(C)CC(=O)NC=C(c2ccccc2)C1 | -5%
More structures.
SMILES | AmpC nodet inh
Cc1cc(NC(=O)Nc2ccc3c(ccn3C)c2)sn1 | ?
C=C(C)CSc1nnc([C@@H](N)Cc2c[nH]c3ccccc23)o1 | 29%
N#Cc1nc(Cc2ccccc2)oc1NCc1cccnc1 | 8%
COc1ccc(CNc2ccnc(-c3ccc(C(=O)N(C)C)cc3)n2)c(OC)c1 | 137%
COc1ccc(C(c2nnnn2CC2CCCO2)N2CCN(c3ccc(F)cc3)CC2)cc1 (centres undefined) | 102%
O=S(N1CCCCCC1)C12CC3CC(CC(C3)C1)C2 (centres undefined) | 41%
O=C1c2ccccc2C(O)N1CCN1CCOCC1 (centres undefined) | 6%
O=C(NCc1ccco1)c1ccc2c(c1)C(=O)c1ccccc1-2 | -15%
CCOc1ccc2cc(C#N)c(SCC(=O)OC)nc2c1 | 0%
O=c1c2c3nc4ccccc4nc3n(/N=C/c3ccco3)c2ncn1CCC1=CCCCC1 | 5%
COc1ccc(C2=NOC(C(=O)NCCN3CCOCC3)C2)cc1 (centres undefined) | 0%
Cc1cccc(C)c1NC(=O)CSCC(=O)O | -1%
O=C(Nc1cc(C(F)(F)F)ccc1N1CCOCC1)c1cccnc1 | 40%
CC1(C)S[C@@H]2[C@@H](NC(=O)[C@@H](N)c3ccccc3)C(=O)N2[C@H]1C(=O)O | 0.05µM*
Cc1ccc(NC(=O)N(Cc2cc3cc(C)cc(C)c3[nH]c2=O)CC2COCCO2)cc1 (centres undefined) | 130%
CCc1ccc(N2C(=O)c3sc4nnc(C)c(=O)n4c3C2=O)cc1 | -1%
CCOc1cc(/C=N/n2cnnc2)ccc1OCC(=O)Nc1ccccc1OC | 23%
CCc1ccc(NC(=O)CSc2nc3ccccc3c(=O)n2CCN2CCOCC2)cc1 | 143%
O=C(NC1CCCCC1)NC1CC2CCC(C1)N2C(=O)NC1CCCCC1 (centres undefined) | 3%

In the list so far, these contain a Cl atom.
SMILES | AmpC nodet inh
O=C(O)COCCN1CCN([C@@H](c2ccccc2)c2ccc(Cl)cc2)CC1 | 28%[12.8 µM]
O=C(CSc1ccc(Cl)cc1)N1CCOCC1 | 2%
COc1ccc(Cl)cc1NC(=O)CN(C1CCCCC1)S(C)(=O)=O | -16%
CC(c1ccco1)N(C(=O)COc1ccc(Cl)cc1Cl)c1ccccn1 (centres undefined) | 65%
COCON1C(=O)CN(C(C)=O)C1c1ccc(Cl)cc1Cl (centres undefined) | 6%
COc1ccc(NC(=O)C2CCN(S(=O)(=O)c3cccnc3)CC2)cc1Cl | 10%
CN(C)C[C@@H](O)c1ccc(Cl)c2ccccc12 | 12%[5.75 µM]
COc1ccc(C2(C)NC(=O)N(Cc3cc(Cl)cc4c3OCOC4)C2=O)cc1OC (centres undefined) | 59%
CS(=O)(=O)N1CCCC(C(=O)NCc2ccccc2Cl)C1 (centres undefined) | 0%
Cl/C=C/Cl | -3%
Cc1nn2c(-c3ccc(Cl)cc3Cl)nnc2s1 | 12%
Clc1cccc(-c2nn3c(-c4ccncc4)nnc3s2)c1 | -1%
O=C(Nc1ccccn1)c1cc(-n2cnnc2)ccc1Cl | 1%
O=C(Nc1ccc(Cl)c(Cl)c1)c1ccncc1 | -2%
CSc1nc(N)nc(SCCS(=O)(=O)c2ccc(Cl)cc2)c1C#N | -10%
O=C(c1ccc(Cl)cc1)N1CCCCC(Sc2nnc(-c3ccc4c(c3)OCO4)o2)C1=O (centres undefined) | 31%

Bioassay records as filed in PubChem BioAssay.

This is a subset. The share of hits here may be higher or lower than overall.
